D2 ag – activates the human D2 dopamine receptor; DiscoveRx PathHunter D2 beta-arrestin, luminescence, 90 min; 100% = 57 uM dopamine signal; actives 0.084% (n = 360,000); activation, % (no concentration beside the values); in the data active = activation above about 40%; inconclusive = about 15% to 40%; inactive = below about 15%; note: compound concentration not given in the record; the text of the record calls up to 30% inactive
Target sequence (P14416 whole entry, looked up): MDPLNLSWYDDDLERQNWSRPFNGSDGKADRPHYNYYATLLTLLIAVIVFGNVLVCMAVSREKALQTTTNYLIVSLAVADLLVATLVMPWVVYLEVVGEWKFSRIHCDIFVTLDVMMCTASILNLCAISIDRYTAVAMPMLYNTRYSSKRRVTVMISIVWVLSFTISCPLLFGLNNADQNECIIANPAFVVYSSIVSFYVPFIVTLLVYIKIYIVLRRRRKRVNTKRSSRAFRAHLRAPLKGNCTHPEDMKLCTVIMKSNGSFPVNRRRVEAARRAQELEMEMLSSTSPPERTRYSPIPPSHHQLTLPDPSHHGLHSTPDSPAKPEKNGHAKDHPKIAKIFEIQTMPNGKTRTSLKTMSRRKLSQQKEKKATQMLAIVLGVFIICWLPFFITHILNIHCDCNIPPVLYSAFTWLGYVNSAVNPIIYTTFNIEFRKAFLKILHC
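Agonist mode: compounds alone added to overnight-plated D2 PathHunter cells for 90 min at 37 C, with 57 uM final dopamine (EC100) defining full response. Beta-arrestin recruitment detected by chemiluminescent reagent, read after 1 h at ambient temperature.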
TRPML1 agonist – agonists of human TRPML1 channel; actives 0.12% (n = 410,000); activation, % (test concentration not listed); AID 624414; TRPML1-expressing cells, Ca2+ dye fluorescence, FDSS; host cell line not named in the record; reference of the full effect not given here; in the data active = activation above about 50%; inconclusive = about 30% to 50%; inactive = below about 30%; note: 0% is about no effect; the text of the record puts the active cut at 80%
Target sequence (Q9GZU1 whole entry, looked up): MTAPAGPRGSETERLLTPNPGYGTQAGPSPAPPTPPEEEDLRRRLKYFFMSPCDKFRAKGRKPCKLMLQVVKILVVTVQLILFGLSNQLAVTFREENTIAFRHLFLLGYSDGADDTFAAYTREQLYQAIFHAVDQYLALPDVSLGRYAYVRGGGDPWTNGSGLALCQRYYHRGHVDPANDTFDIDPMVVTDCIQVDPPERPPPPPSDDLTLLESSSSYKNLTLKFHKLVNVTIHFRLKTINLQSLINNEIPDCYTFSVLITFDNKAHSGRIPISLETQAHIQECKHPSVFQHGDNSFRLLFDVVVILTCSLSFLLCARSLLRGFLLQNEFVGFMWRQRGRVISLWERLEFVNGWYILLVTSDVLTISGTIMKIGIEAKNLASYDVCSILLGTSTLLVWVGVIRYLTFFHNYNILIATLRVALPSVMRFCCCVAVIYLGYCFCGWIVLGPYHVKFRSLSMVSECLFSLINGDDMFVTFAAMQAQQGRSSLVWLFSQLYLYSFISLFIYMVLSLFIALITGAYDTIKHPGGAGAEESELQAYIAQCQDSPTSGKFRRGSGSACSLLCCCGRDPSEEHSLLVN
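Calcium fluorescence on an FDSS kinetic reader gave the read-out. Tet-induced TRPML1-DL cells were plated overnight, dye-loaded (Ca8 with quencher, 45-90 min, room temperature, dark), then read 110 s after compound addition, and again 110 s after 4uM final 54-4 (EC80).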
Six1-Eya2 inh – blocks human Six1 binding to Eya2; AlphaScreen GST-Six1/His-Eya2 binding, biochemical; hits give low values; control for the full effect not named in the record; activity change, % (concentration not given with the values); actives 0.56% (n = 360,000); in the data active = activity change below about -65%; inconclusive = about -30% to -65%; inactive = above about -30%; note: % is set by controls: 0 for no effect and ±100 for the full control effect
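AlphaScreen with GST-Six1 and His-Eya2 (5X mix: 250 nM and 500 nM), glutathione donor and nickel acceptor beads; buffer 50 mM Tris pH 8.0, 300 mM NaCl, 1 mM TCEP; 1 h at 37 C in the dark.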
PINK1 expr mod – modulators of PINK1 expression; actives 0.2% (n = 410,000); Potency, µM (titrated, usually from 76.6 µM), without a hit: at the highest dose activation (PINK1 increase), hits mostly activators; PINK1 immunofluorescence, high-content cytometry, 24 h; active = well fitted activation curve with a large enough effect; inconclusive = small, poorly fitted or top-dose-only effect; inactive = flat fitted curve, though single readings scatter; cell line not stated here;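 note: potency is the fitted concentration of half-maximal effect; % of control where 0% means no effect; nearly all actives have a fitted effect of over 65% in size; a mitochondrial uncoupler was the plate control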
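Measures PINK1 amount and localization on or inside mitochondria by immunofluorescence. Stable cells get compounds at 5 concentrations for 24 hours before fixation and staining; CCCP controls included.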
D2 PAM – positive allosteric modulators of human D2 dopamine receptor. P14416. DiscoveRx D2 beta-arrestin cells, luminescence, 90 min; 100% = 57 uM dopamine signal. potentiation, % (test concentration not listed). actives 0.23% (n = 360,000). AID 624464; active = potentiation of 50% or more; inconclusive = 30% to 50%; inactive = 30% or less;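 note: compound concentration not given in the record; tested on top of an EC20 dose of dopamine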
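PathHunter D2 cells, attached overnight at 37 deg C, received compound in DMSO plus dopamine at EC20 (50 nM final) for 90 min at 37 deg C. Beta-arrestin recruitment was read as luminescence after 1 h with detection reagent at ambient temperature.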
CtBP-E1A inh – inhibitors of CtBP/E1A interaction. activity change, % (test concentration not listed). AID 651724. actives 0.49% (n = 340,000). AlphaScreen GST-E1A/His-CtBP binding, 1536-well; hits give low values; control for the full effect not named in the record; in the data active means activity change below about -65%; inconclusive means about -30% to -65%; inactive means above about -30%; note: % is set by controls: 0 for no effect and ±100 for the full control effect; compound concentration not given in the record
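Homogeneous bead-based format: GST-tagged E1A captured on glutathione donor beads, His-tagged CtBP on nickel acceptor beads; compounds precede bead addition by 2 h at 37 °C.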
* hit, by the source's call; u = inconclusive; x = no result given; & = joins results of further samples; [ ] = remark or other dose.

SMILES	D2 ag	TRPML1 agonist	Six1-Eya2 inh	PINK1 expr mod	D2 PAM	CtBP-E1A inh
O=C(COC(=O)c1ccco1)Nc1cccc(S(=O)(=O)N2CCOCC2)c1	-2.7	-0.4	-7	2.1%	-4	2
CCn1c(SCC(=O)c2ccc(Cl)cc2)nnc1-c1cccs1	-5.8	0.6	-3	-0.8%	-26	5
Cn1c(Cn2cnc([N+](=O)[O-])n2)nnc1SCC(=O)Nc1cccc(Cl)c1	-0.3	-0.5	3	-1.5%	-7	6
CCc1nnc(NS(=O)(=O)c2ccc(N=CC3=C(O)CC(C)(C)CC3=O)cc2)s1	-0.2	-0.5	2	-0.4%	-5	8
Cc1ccc(OCC(=O)Nc2ccc3c(c2)nc(CCN2CCOCC2)n3C)cc1	-1.8	-0.8	5	4.5%	-16	6
CCOC(=O)C1(CCOc2ccccc2)CCN(Cc2ccccc2O)CC1	-5.3	-0.5	2	2.8%	-7	9
COc1ccccc1N/C(=N/S(=O)(=O)c1ccc(C)cc1)c1ccccc1	-6.5	0.2	5	0.1%	-8	8
C=CCn1c(CNS(=O)(=O)c2ccc(Cl)cc2)n[nH]c1=S	-4.7	0.1	2	0.6%	-18	-1
c1nc(N2CCOCC2)c2[nH]cnc2n1	-2.9	0.2	-4	0.0%	-10	3
COCCNC(=O)C(c1ccc(F)cc1)N(Cc1cccs1)C(=O)CCC(=O)Nc1ccccn1 (stereo not given)	-3.7	0.3	7	0.1%	-3	6
COC(=O)/C(=N\Nc1ccc(Cl)cc1)Sc1nnc(-c2ccc(OC)cc2)n1C	-4.1	-0.6	-24	0.8%	-9	-20
CC1(C)CC(=O)C(C=NCC2CCN(C(=O)Nc3ccc(Cl)c(Cl)c3)CC2)=C(O)C1	-0.7	-0.7	-2	6.1%	-7	2
CCOc1ccc(-n2c(O)c(/C=N/c3ccnn3Cc3ccncc3)c3ccccc3c2=O)cc1	1.6	0.0	1	u	-16	-10
Cc1ccn2c(Cc3ccccc3)c(-c3ccc(F)cc3)nc2c1	-13	0.6	-8	4.0%	-3	-2
COC(=O)CCC(=O)OC1(C)C(=O)C=C2C=C(C3CC3)N(Cc3ccccc3)C=C2C1=O (stereo not given)	6.4	-0.1	-3	0.9%	-4	3
CCn1nc(C(=O)OCC(=O)N(CC(C)C)c2c(N)n(Cc3ccccc3)c(=O)[nH]c2=O)c2ccccc2c1=O	-0.7	-0.7	8	-0.5%	-25	-18
CCCC(=O)Nc1ccc2oc(=O)ccc2c1	-3.8	0.6	8	0.1%	-5	6
Cc1noc(C)c1C(=O)OCC(=O)c1ccc[nH]1	1.2	-1.0	0	-4.7%	2	2
CCc1nc2ccc(C(=O)NCCCn3ccnc3)cn2c1N(C)Cc1ccc(N(C)C)cc1	8.6	-1.2	-24	-0.3%	1	-23
CCOC(=O)c1ccc2nc(NC(NC(C)=O)(C(=O)OC)C(F)(F)F)sc2c1 (stereo not given)	-2.2	0.5	1	7.7%[38.3 µM]	0	8
COc1cc2c(cc1OC)C(C(=O)Nc1ccccn1)C(c1cccnc1)N(C)C2=O (stereo not given)	-2.2	1.3	-3	-0.5%	-1	1
C[C@H]1CN([C@@H](C)CO)S(=O)(=O)c2ccc(Br)cc2O[C@H]1CN(C)Cc1ccccc1F	-10	-0.6	7	21%	-5	7
CCc1nc(N2CCC3(CC2)OCCO3)c2nnn(Cc3ccccc3Cl)c2n1	-0.2	3.3	8	1.8%	-3	-2
COc1ccc(NC(=O)c2ccc(NC(=O)CCS(=O)(=O)c3cccs3)cc2)cc1	2.0	0.4&0.6	-8	9.9%&3.8%	1	-15
CCOC(=O)CNC(=O)c1cn(CC)c(=O)c2cc(OC)c(OC)cc12	-2.0	0.6	0	-0.1%	-3	1

Of the compounds above, 3 have a thiophene ring, fused or not.
SMILES	D2 ag	TRPML1 agonist	Six1-Eya2 inh	PINK1 expr mod	D2 PAM	CtBP-E1A inh
CCn1c(SCC(=O)c2ccc(Cl)cc2)nnc1-c1cccs1	-5.8	0.6	-3	-0.8%	-26	5
COCCNC(=O)C(c1ccc(F)cc1)N(Cc1cccs1)C(=O)CCC(=O)Nc1ccccn1 (stereo not given)	-3.7	0.3	7	0.1%	-3	6
COc1ccc(NC(=O)c2ccc(NC(=O)CCS(=O)(=O)c3cccs3)cc2)cc1	2.0	0.4&0.6	-8	9.9%&3.8%	1	-15

Continued:
SMILES	D2 ag	TRPML1 agonist	Six1-Eya2 inh	PINK1 expr mod	D2 PAM	CtBP-E1A inh
CCOC(=O)c1nc(NCc2ccccc2C)c2ccccc2n1	-2.8	3.3	-1	3.7%	-8	-6
O=c1ccc2ccc(O[C@@H]3O[C@H](CO)[C@@H](O)[C@H](O)[C@H]3O)c(O)c2o1	-2.0	-0.5	3	2.8%	-23	1
Cc1[nH]c2ccccc2c1/C=N/NC(=O)c1ccccc1	-3.5	-0.4	-18	0.9%	-31	x
CCOC(=O)COc1nc(OC)nc(N2CCOCC2)n1	0.0	0.4	4	x	-13	0
CN(C)S(=O)(=O)c1ccc(C(=O)NN2C(=O)NC3(CCCCC3)C2=O)cc1	-1.5	-0.3	2	0.4%	u	6
COc1ccc(C(c2nnnn2C2CCCCC2)N2CCN(C/C=C/c3ccccc3)CC2)cc1 (stereo not given)	-4.5	0.0	-10	5.3%	-15	1
Cc1ccc(S(=O)(=O)N2CCC(=O)N([C@H](COCc3cccc(Cl)c3)C(C)C)CC2)cc1	x	4.1	-4	1.9%	x	0
N#Cc1c(N)nc(SCc2ccncc2)c(C#N)c1-c1cccs1	6.7	-0.3	-13	-2.9%[38.3 µM]	16	u
CCCCCCC(O)(CCN1CCCCC1)c1ccccc1 (stereo not given)	-1.7	-0.7	6	6.5%	-13	5
CC#CC[N+](C)(C)CCCCCC	-1.8	0.5	-1	0.0%	-10	4
Cc1nnc(SCC(=O)Nc2ccccc2N2CCOCC2)s1	0.6	-0.6	-1	2.8%[38.3 µM]	10	6
Cc1ccc(-c2onc3ccc(C4OCCO4)cc23)cc1	12	1.7	17	1.3%	u	-4
CC(C)CCn1nc(C(=O)OC(C)C(=O)NC(N)=O)c2ccccc2c1=O (stereo not given)	-3.3	-0.3	3	-0.7%	8	11
COc1ccc(N2CCN(C(=O)c3ccc(N(C)S(=O)(=O)c4ccc(OC)cc4)cc3)CC2)cc1	-1.3	-0.1	-26	-1.1%	-6	-19
CN1C(=O)N(C)c2cccc3cccc1c23	1.2	0.4	4	-1.0%	-2	5
COc1ccc([C@@H]2[C@@H](C)N(c3ccccc3)c3ccccc3C(=O)N2Cc2ccccc2)cc1	-10	1.5	-5	11%	5	5
O=C(CSCc1ccc([N+](=O)[O-])cc1)N/N=C/c1ccncc1	-6.1	-0.5	12	1.7%	-11	4
OC[C@@H]1CN(Cc2ccc3c(c2)OCO3)C[C@H](n2cnc3c(NCc4ccco4)ncnc32)O1	1.2	-0.3	1	0.6%	-4	-4
COC(=O)c1c(C)[nH]c(C(=O)CN2CCOCC2)c1C	-4.1	-0.1	4	-2.4%	-18	0
Cc1ccc(NC(=O)CSCC(=O)Nc2ncc3c(n2)CC(c2ccco2)CC3=O)cc1 (stereo not given)	-1.0	0.0	-10	3.3%[38.3 µM]	10	-3
Cc1ccc2cc(C#N)c(N3CCCN(C(=O)c4cnccn4)CC3)nc2c1	-3.1	-0.5	10	-1.4%	-2	-11
CCOC(=O)C1=C(C)NC(=O)C(C(N)=O)C1c1ccccc1 (stereo not given)	-3.1	-0.2	2	0.1%	3	4
CC(=O)Nc1cccc(-c2ccnc3c2CC(C)(C(=O)Nc2cccnc2)O3)c1 (stereo not given)	-4.8	-0.5	0	3.8%	3	1
O=C(CCCn1c(SCC(=O)Nc2ccccc2C(F)(F)F)nc2ccccc2c1=O)NCC1CCCO1 (stereo not given)	-4.1	-0.1	17	1.6%	-2	21
COC/C=C/C1=CC2=CC(=O)C(C)(OC(=O)c3cnc4ccccc4n3)C(=O)C2=CN1Cc1ccccc1 (stereo not given)	3.2	-1.0	-9	10%	15	0

Next structures:
SMILES	D2 ag	TRPML1 agonist	Six1-Eya2 inh	PINK1 expr mod	D2 PAM	CtBP-E1A inh
COC(=O)C1=C[C@@H](C(=O)OC)[C@@H]2C3=C(C(=O)[C@@]2(C)NC(=O)c2ccccc2)[C@H](C)n2c(=O)n(C)c(=O)n2[C@@H]3C1	0.4	-0.8	0	1.4%	-43	-2
COc1ccc(CCNC(=O)c2c(C)cc(=O)oc2C)cc1OC	-2.0	-0.2	-1	3.4%[38.3 µM]	-5	-8
CNC(=O)CS(=O)CC(=O)Nc1cc(OC(C)C)c(Cl)cc1Cl (stereo not given)	-1.7	0.1	5	-0.3%	-3	1
C=CCOC(=O)C1=C[C@H](C(C)(C)C)[C@@H](CCCO)[C@H](OCC)O1	-0.1	-0.8	6	1.6%	-46	-6
CC(C)(O)C#Cc1ccc(C(=O)N2CCN(c3ccc([N+](=O)[O-])cc3)CC2)cc1	9.8	0.0	-1	-1.6%	8	5
Cc1cc(N2C(=O)C3C4C=CC(C4)C3C2=O)ccc1Br (stereo not given)	-1.6	1.1	-1	-1.4%	-22	7
O=C1/C(=C/c2cccnc2)CCc2c1[nH]c1ccccc21	1.1	0.6	-3	0.1%	-6	-3
Cc1ccccc1OCC(=O)OCC(=O)NCc1ccco1	0.1	2.4	0	0.2%	-7	-9
C=CCn1c(CNC(=O)c2cccs2)nnc1SCc1ccc(Cl)cc1Cl	-1.3	2.2	0	-0.5%	-12	-8
COCc1c(C(=O)NC2CCCCC2)sc2cccc(F)c12	8.3	1.1	4	2.9%	0	7
CCOC(=O)Cn1cnc2scc(-c3ccc(C)cc3)c2c1=O	12	-0.4	1	3.7%	2	-11
CCN1CCN(C(C(=O)NC2CCCCC2)C2CC2)CC1 (stereo not given)	-3.1	-0.1	17	1.6%	-4	5
COc1cc(C(=O)NCCCN(C)C)ccc1OCC(=O)Nc1cccc(C(F)(F)F)c1	-0.7	-0.1	6	0.7%	-15	-22
CCN(c1ccccc1)S(=O)(=O)c1ccc(Oc2ccc(C(C)=O)cc2OC)nc1	4.6	0.7	-2	3.8%	1	1
Nc1ccc2nc(-c3ccccc3)cnc2c1	-0.5	u	20	-1.7%	13	15
O=C(NCc1ccco1)C(c1cccnc1)N(C(=O)Cn1nnc2ccccc21)c1ccc(F)cc1 (stereo not given)	-2.3	0.2	-24	-2.9%	-20	-12
CN1CCN(c2ccc(Cl)cc2NC(=O)CC2OC(=O)c3ccccc32)CC1 (stereo not given)	-7.2	0.6	3	-1.6%	-28	0
O=C1CCCCC1Nc1ccc(Br)cc1 (stereo not given)	-6.1	0.6	7	2.3%	-25	4
Cc1ccc(-c2nc3c(c(SCC(=O)N4CCOCC4)n2)Cc2c(CO)cnc(C)c2O3)cc1	-3.5	-0.4	-15	7.5%	14	-19
CCNC(=O)C1(C)CCCN1C(=O)c1cc(C)on1 (stereo not given)	3.7	-0.4	7	2.3%	-7	1

Single records, from the list above. Order of values: D2 ag	TRPML1 agonist	Six1-Eya2 inh	PINK1 expr mod	D2 PAM	CtBP-E1A inh
O=C(NCc1ccco1)C(c1cccnc1)N(C(=O)Cn1nnc2ccccc21)c1ccc(F)cc1 (stereo not given) is listed as -2.3	0.2	-24	-2.9%	-20	-12
CCOC(=O)CNC(=O)c1cn(CC)c(=O)c2cc(OC)c(OC)cc12 is listed as -2.0	0.6	0	-0.1%	-3	1
CCOC(=O)c1nc(NCc2ccccc2C)c2ccccc2n1 is listed as -2.8	3.3	-1	3.7%	-8	-6
